rRNA inh HTS: reduced GFP signal of wild-type E. coli, primary screen, bacterial rRNA inhibitor project, GFP/RFP fluorescence, OD600, single point; E. coli WT GFP vs humanized-ribosome RFP mutants, 24 h; active compounds read low; DMSO median 0, no signal -100; GFP signal change (wild-type ribosome), % (no concentration beside the values); 350,000 compounds, 1.6% hits;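 active = significant combined selectivity score with lowered wild-type GFP, culture density cut under 30%, mutant RFP and density less affected; inactive = any of these conditions unmet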; note: one replicate is shown; some compounds called inactive have numbers as strong as hits
rRNA inh HTS OD600: recorded beside rRNA inh HTS, whose call it bears; OD600 change, %; measured here: OD600 growth;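 optical density of the mix in the first replicate; 0 = DMSO median and -100 = no signal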
rRNA inh HTS RFP: second read-out of rRNA inh HTS, no call of its own (marks repeat the call); RFP signal change, %; measured here: RFP humanized mutant strains;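 first replicate; 0 = DMSO median and -100 = no signal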
An asterisk follows results filed as active. A portion of the library (hit frequency here may not be typical).

SMILES	rRNA inh HTS	rRNA inh HTS OD600	rRNA inh HTS RFP
Cc1noc(C)c1S(=O)(=O)Nc1cccc2c1O[C@@H](CN(C)Cc1ccc3c(c1)OCO3)[C@@H](C)CN([C@@H](C)CO)C2=O	1.4	-4.8	-3.7
CCNC(=O)N1CCN(c2ccc(N3CCN(C(=O)NCC)[C@@H](C)C3)c(C)c2)[C@H](C)C1	11.8	3.5	4.2
Cc1ccccc1S(=O)(=O)Nc1ccc2c(c1)C(=O)N(C)[C@H]1CC[C@@H](CC(=O)O)O[C@H]1CO2	1.7	3.9	-2.1
Cc1noc(C)c1S(=O)(=O)Nc1cccc2c1O[C@H](CN(C)Cc1ccc(Oc3ccccc3)cc1)[C@H](C)CN([C@@H](C)CO)C2=O	0.7	-7.6	-0.7
C[C@H](CO)N1C[C@H](C)[C@@H](CN(C)C(=O)c2ccccc2)OCCCC[C@H](C)Oc2ccc(NS(C)(=O)=O)cc2C1=O	-2.6	-3.4	-0.2
COc1ccc(CNC(=O)C[C@@H]2CC[C@H](NC(=O)Nc3ccc4c(c3)OCO4)[C@@H](CO)O2)cc1	2.2	4.8	-0.6
C[C@@H]1CCCCO[C@@H](CN(C)C(=O)C2CCCCC2)[C@@H](C)CN([C@@H](C)CO)C(=O)c2cc(NC(=O)Nc3ccc4c(c3)OCO4)ccc2O1	1.4	4.2	0.1
CN(C)CC(=O)N1[C@H](CO)[C@@H](c2ccc(-c3ccc(C(=O)N(C)C)cc3)cc2)[C@@H]1C#N	4.3	-1.1	1.2
CC1(C(=O)NS(=O)(=O)c2ccc(F)cc2F)CCN1C(=O)CCc1ccccc1 (stereo unspecified)	1.8	7.8	-16.1
CO[C@@H]1CN(C)C(=O)c2cc(NC(=O)Nc3cc(F)ccc3F)ccc2OC[C@@H](C)N(C)C[C@@H]1C	-2.7	-9.6	2.3
COCCNC(=O)c1cc2c(c(-c3cccc(-c4cccc(F)c4)c3)n1)[C@H](CCO)N(S(=O)C(C)(C)C)C2 (stereo partly specified)	-7.4	-12.8	8.9
C[C@H]1CN([C@@H](C)CO)C(=O)c2cc(NC(=O)CCN3CCOCC3)ccc2O[C@H]1CN(C)S(C)(=O)=O	1.2	0.7	-2.9
CS(=O)(=O)N1[C@@H]2c3ccc(C4=CCCCC4)c(=O)n3C[C@H]1[C@H](CO)[C@H]2C(=O)N1CCCCC1	2.0	5.6	-2.0
Cc1cc(F)ccc1-c1cc(C(=O)NCc2ccc(C(F)(F)F)cc2)[nH]n1	-54.9	-62.4	-13.6
COc1ccc2c3c(n(C)c2c1)[C@H](CO)N(C(=O)C1CCC1)CC31CCN(Cc2cccc(F)c2)CC1	0.8	-14.1	0.7
CC(C)NC(=O)N(C)C[C@@H]1OCCCC[C@@H](C)Oc2ccc(NC(=O)Nc3ccc(F)cc3)cc2C(=O)N([C@@H](C)CO)C[C@H]1C	-1.7	-6.7	0.5
CNC[C@@H]1Oc2ccc(NC(=O)Nc3ccc(OC)cc3)cc2C(=O)N([C@H](C)CO)C[C@H]1C	3.2	7.9	-1.6
C[C@H](NC(=O)N(C)C[C@H]1OCc2ccccc2-c2c(n(C)c3ccccc23)C(=O)N([C@H](C)CO)C[C@H]1C)c1ccccc1	-4.0	-11.6	5.9
COc1ccccc1S(=O)(=O)N1CC[C@@H]2[C@H]1c1cc(C#CC3CCCCC3)ccc1N[C@@H]2CO	2.3	11.6	14.4
CC(C)c1ccc(C(=O)N2CCOCC2c2cc(C(=O)Nc3ccccc3)no2)cc1 (stereo unspecified)	0.9	6.1	1.7

Given with bars between the fields: entries from further up.
structure | rRNA inh HTS | rRNA inh HTS OD600 | rRNA inh HTS RFP
CO[C@@H]1CN(C)C(=O)c2cc(NC(=O)Nc3cc(F)ccc3F)ccc2OC[C@@H](C)N(C)C[C@@H]1C | -2.7 | -9.6 | 2.3
COCCNC(=O)c1cc2c(c(-c3cccc(-c4cccc(F)c4)c3)n1)[C@H](CCO)N(S(=O)C(C)(C)C)C2 (stereo partly specified) | -7.4 | -12.8 | 8.9
C[C@H]1CN([C@@H](C)CO)C(=O)c2cc(NC(=O)CCN3CCOCC3)ccc2O[C@H]1CN(C)S(C)(=O)=O | 1.2 | 0.7 | -2.9
CS(=O)(=O)N1[C@@H]2c3ccc(C4=CCCCC4)c(=O)n3C[C@H]1[C@H](CO)[C@H]2C(=O)N1CCCCC1 | 2.0 | 5.6 | -2.0
Cc1cc(F)ccc1-c1cc(C(=O)NCc2ccc(C(F)(F)F)cc2)[nH]n1 | -54.9 | -62.4 | -13.6
COc1ccc2c3c(n(C)c2c1)[C@H](CO)N(C(=O)C1CCC1)CC31CCN(Cc2cccc(F)c2)CC1 | 0.8 | -14.1 | 0.7
CC(C)NC(=O)N(C)C[C@@H]1OCCCC[C@@H](C)Oc2ccc(NC(=O)Nc3ccc(F)cc3)cc2C(=O)N([C@@H](C)CO)C[C@H]1C | -1.7 | -6.7 | 0.5
CNC[C@@H]1Oc2ccc(NC(=O)Nc3ccc(OC)cc3)cc2C(=O)N([C@H](C)CO)C[C@H]1C | 3.2 | 7.9 | -1.6
C[C@H](NC(=O)N(C)C[C@H]1OCc2ccccc2-c2c(n(C)c3ccccc23)C(=O)N([C@H](C)CO)C[C@H]1C)c1ccccc1 | -4.0 | -11.6 | 5.9

More records.
SMILES	rRNA inh HTS	rRNA inh HTS OD600	rRNA inh HTS RFP
O=C(NCC(c1cccs1)N1CCOCC1)c1cc(F)cc(F)c1 (stereo unspecified)	9.8	10.9	1.1
COCC(=O)N1[C@@H]2Cn3c(ccc(-c4ccccc4)c3=O)[C@H]1[C@@H](C(=O)NCc1ccccn1)[C@@H]2CO	-1.5	-15.7	-4.0
O=C(O)[C@H]1[C@H](CO)[C@H]2Cn3c(ccc(/C=C/c4ccccc4)c3=O)[C@H]2N1C(=O)c1cnccn1	0.5	0.0	-1.4
C[C@@H]1CCCCO[C@@H](CN(C)S(=O)(=O)c2ccc(F)cc2)[C@@H](C)CN([C@@H](C)CO)C(=O)c2cc(NS(=O)(=O)c3ccccc3)ccc2O1	1.0	0.5	-0.8
CN(C)CCCNC(=O)C[C@H]1CC[C@@H](NC(=O)Cc2cccnc2)[C@@H](CO)O1	1.9	4.0	3.9
CCCNC(=O)N1[C@@H](C#N)[C@H](c2ccc(-c3ccccc3F)cc2)[C@@H]1CO	19.5	-17.0	0.6
CCCN(C)C[C@H]1Oc2cc(C#CC3CC3)ccc2S(=O)(=O)N([C@@H](C)CO)C[C@H]1C	3.6	1.0	2.1
COC(=O)[C@]12C[C@H](CC(=O)N3CCCCC3)C(=O)N(Cc3ccccc3)C1=C[C@H](C(C)(C)C)O[C@@H]2C	-2.2	7.6	2.8
COCC#Cc1ccc2c(c1)O[C@H](CN(C)CC1CCOCC1)[C@@H](C)CN([C@H](C)CO)S2(=O)=O	-4.3	-6.5	-3.0
CCS(=O)(=O)NCC[C@@H]1CC[C@@H](NC(=O)C2CCCCC2)[C@H](CO)O1	2.4	-3.8	0.6
Cn1ccc2c(N3c4ccccc4CCc4ccccc43)cc3c(c21)C1CCC3C1 (stereo unspecified)	-7.5	7.3	-5.5
CC=Cc1ccc2n(c1=O)C[C@@H]1N[C@H]2[C@H](C(=O)NC2CCCCC2)[C@H]1CO (mixture of isomers)	1.2	6.2	-2.2
C[C@@H]1CCCCO[C@H](CN(C)C(=O)NC2CCCCC2)[C@@H](C)CN([C@H](C)CO)C(=O)c2cc(NC(=O)Nc3ccc(C(F)(F)F)cc3)ccc2O1	-1.1	0.5	-0.9
CCN(CC)C(=O)c1cccc(-c2csc(C(NC(C)=O)c3ccc(F)c(F)c3)n2)c1 (stereo unspecified)	-13.2	-6.5	1.3
COCC#Cc1cnc2c(c1)C(=O)N([C@@H](C)CO)C[C@H](C)[C@H](CN(C)C(=O)NC1CCCC1)O2	-2.6	-1.9	0.0
COc1ccc(NC(=O)Nc2ccc3c(c2)[C@@H]2C[C@H](CC(=O)N4CCOCC4)O[C@@H](CO)[C@@H]2O3)cc1	0.9	0.6	-3.7
CCC(=O)N(C)C[C@@H]1Oc2ncc(-c3ccc(C)cc3)cc2C(=O)N([C@H](C)CO)C[C@H]1C	1.2	-2.9	-6.3
O=C(C[C@@H]1CC[C@@H]2[C@H](COC[C@H](O)CN2Cc2cccc(F)c2)O1)NCc1ccncc1	5.0	6.3	-8.6
CCC(=O)N1C[C@@H](C)[C@@H](OC)CN(C)C(=O)c2ccc(NC(=O)c3ccno3)cc2OC[C@@H]1C	4.2	2.6	-1.2
CN(C)S(=O)(=O)c1cccc(NC(=O)COc2ccccc2C(=O)Nc2ccccc2)c1	4.0	1.3	7.7
O=C(C[C@@H]1C[C@H]2c3cc(NC(=O)C4CCOCC4)ccc3O[C@H]2[C@@H](CO)O1)NCCN1CCCCC1	4.1	1.6	-2.0
Cc1noc(C)c1S(=O)(=O)Nc1ccc2c(c1)CC(=O)N([C@@H](C)CO)C[C@H](C)[C@@H](CN(C)C(=O)Nc1ccc3c(c1)OCO3)O2	2.1	8.0	-1.1
COc1ccc2c3c(n(C)c2c1)[C@@H](CO)N(C(=O)c1cnccn1)CC31CCN(C(C)=O)CC1	4.4	18.1	-2.7
CC(=O)N1CCOC12CCN(Cc1ccccc1)CC2	27.0	15.2	2.2
CCCCN1C(=O)C(CC(=O)NCc2cccc3ccccc23)CC(C(=O)N(C)C)=C1C (stereo unspecified)	13.0	7.5	2.0
Cc1cc(C(=O)N2CCc3ccccc32)ccc1[N+](=O)[O-]	7.6	8.2	1.0
CCCNC(=O)Nc1ccc2c(c1)OC[C@@H](C)N(Cc1ccncc1)C[C@H](C)[C@@H](OC)CN(C)C2=O	1.0	5.1	3.5
CCN(CCn1cccn1)C(=O)c1ccc(OC2CCN(C(=O)CCOC)CC2)cc1	8.9	4.2	-0.8
C[C@H](CO)N1C[C@H](C)[C@H](CN(C)C(=O)c2cccnc2)Oc2ncc(C3=CCCCC3)cc2C1=O	2.6	10.4	-1.3
CC(C)[C@@H]1COCn2nncc2CCCC(=O)N1	1.6	22.5	2.4
Cc1ccc(S(=O)(=O)N(C)C[C@H]2Oc3ccc(NC(=O)NC4CCCCC4)cc3C(=O)N([C@@H](C)CO)C[C@@H]2C)cc1	0.6	12.6	-0.4
Cc1ccc(S(=O)(=O)Nc2ccc3c(c2)C(=O)N([C@@H](C)CO)C[C@@H](C)[C@H](CN(C)Cc2ccc4c(c2)OCO4)O3)cc1	-2.3	-2.0	-1.3
CC(C)C#Cc1cnc2c(c1)C(=O)N([C@H](C)CO)C[C@@H](C)[C@H](CN(C)Cc1ccccc1F)O2	-7.1	-10.0	-0.5
COc1cc(C(C)=O)ccc1OCC(=O)Nc1ccc(S(=O)(=O)N2CCCCC2)cc1	-10.5	-19.4	2.2
CNC[C@@H]1Oc2c(NC(=O)NC3CCCCC3)cccc2C(=O)N([C@H](C)CO)C[C@H]1C	3.4	7.9	-1.4
C[C@@H]1CN([C@H](C)CO)C(=O)c2cc(NC(=O)c3ccncc3)ccc2O[C@@H](C)CCCCO[C@H]1CN(C)Cc1ccc(C(=O)O)cc1	4.4	4.6	1.3
COc1ccc(S(=O)(=O)N[C@@H]2CC[C@@H](CCn3cc(-c4cccc(F)c4)nn3)O[C@H]2CO)cc1	-5.3	-11.1	2.6
C[C@H](NC(=O)C[C@@H]1CC[C@@H](NC(=O)CN2CCOCC2)[C@@H](CO)O1)c1ccccc1	-0.6	-6.3	-0.1
CC(=O)N1[C@H](CO)[C@H](c2ccccc2)[C@H]1CN(C(=O)c1cccc(F)c1)C(C)C	-1.3	5.4	-2.5
COc1ccccc1NC(=O)N(C)C[C@H]1Oc2cc(Br)ccc2S(=O)(=O)N([C@@H](C)CO)C[C@H]1C	-3.0	-6.8	-0.6
CCC1NC(=O)c2cc3ccccc3cc2-n2c1nc1cc(OC)c(OC)cc1c2=O (stereo unspecified)	-3.6	-8.9	4.4
C[C@H](CO)N1C[C@H](C)[C@@H](CN(C)Cc2ccc(C(=O)O)cc2)Oc2ccc(NC(=O)Nc3ccc(C(F)(F)F)cc3)cc2C1=O	-2.4	-6.8	-1.7
C[C@@H]1CN([C@H](C)CO)C(=O)c2cc(NC(=O)CCC(F)(F)F)ccc2O[C@@H]1CN(C)S(=O)(=O)c1cn(C)cn1	0.2	-3.1	-1.4
C[C@@H]1CN([C@H](C)CO)C(=O)c2cc(NS(C)(=O)=O)ccc2O[C@H]1CN(C)C(=O)Nc1ccccc1	4.2	5.5	-1.3
C/C=C/c1ccc([C@@H]2[C@H](CO)N3CCCCN(C(=O)Nc4ccc(OC)cc4)C[C@@H]23)cc1	3.2	12.1	3.5
CCCC(=O)Nc1ccc2c(c1)OC[C@@H](C)N(Cc1cccc(F)c1)C[C@H](C)[C@@H](OC)CN(C)C2=O	-4.8	-12.8	2.0
COc1ccc(NC(=O)Nc2ccc3c(c2)C(=O)N(C)C[C@H](OC)[C@@H](C)CN[C@H](C)CO3)cc1	-1.5	-1.1	-0.6
C/C=C/c1ccc([C@H]2[C@@H](CO)N3CCCCN(S(=O)(=O)c4ccc(F)cc4)C[C@H]23)cc1	-38.7	-64.7	5.7
C[C@H](CO)N1C[C@H](C)[C@H](CN(C)S(=O)(=O)c2ccc(Cl)cc2)Oc2ccc(NC(=O)Nc3ccc(C(F)(F)F)cc3)cc2CC1=O	2.9	8.3	3.1
C[C@H](CO)N1C[C@H](C)[C@H](CN(C)S(=O)(=O)c2ccc(Oc3ccccc3)cc2)OCc2cnnn2CCCC1=O	5.4	-21.9	14.0
CO[C@H]1CN(C)C(=O)c2ccc(NC(=O)Cc3ccccc3)cc2OC[C@@H](C)N(C(=O)c2ccccc2F)C[C@@H]1C	0.4	-3.4	1.1

Screening results as filed in PubChem.
